Autofluor counter = compound fluorescence in toxin protease inhibitor counterscreen; compound autofluorescence counterscreen, microsphere flow cytometry; active compounds read high; fluorescence intensity (concentration not given with the values); 360,000 compounds, 3.1% hits;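 active = at least 3 SD above the mean of all compounds, about 16000 in these data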;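 note: 100 nL of 1 mM stock went into each well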
Mtb hypoxia rep = Mtb hypoxia fluorescent reporter inhibition; M. tuberculosis hypoxia-regulated fluorescent reporter, fluorescence; fluorescence inhibition, % (concentration not given with the values); 300,000 compounds, 0.1% hits;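 active = 35 to 45% if threefold the growth effect, above 45% if 1.5-fold the growth effect; inactive = the rest, general growth blockers included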;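 note: wells of about 50 µL received 100 nL stock; 0% = vehicle wells and 100% = reference inhibitor wells; whole bacteria with a GFP reporter of the hypoxia response; strong numbers were not always called active; many hits fall short of the cut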
BJeLR lethal = BJeLR cell viability loss; inhibition, % (test concentration not listed); 300,000 compounds, 0.17% hits; BJeLR (HRASV12) viability, CellTiter-Glo ATP luminescence, 48 h; reference of the scale not given here;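 active = replicate mean above 50%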;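 note: 50 nL library stock added to about 25 µL; numbers are from one replicate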
Sa RN4220 lethal = S. aureus RN4220 growth inhibition. OD600, 16 h. inhibition, % (no concentration beside the values). 330,000 compounds, 0.33% hits;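 active = z-score of -3 or lower and OD600 up to 0.18 on both plates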;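 note: plate controls were untreated cells for no effect and reference antibiotic for full effect; stock transfer was 100 nL into about 80 µL; one replicate is shown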
PrP 5UTR inh = inhibition of PrP 5' UTR reporter expression | AID 488862 | inhibition, % (concentration not given with the values) | 340,000 compounds, 0.35% hits | cell-based PrP 5' UTR mRNA reporter, plate reader;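 active = every replicate at 50% or more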;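 note: 0 = median of the neutral control wells; tested in H4 reporter cells; numbers are from one replicate; inactives centre near -14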
ugtP null kill = kills S. aureus RN4220 lacking UgtP; S. aureus RN4220 ugtP deletion, OD600 growth, 16 h; some inactives read as strong as hits; 330,000 compounds, 0.54% hits; growth inhibition, % (concentration not given with the values);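 active = z-score under -3 and OD600 up to 0.15 on both plates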;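 note: plate controls were untreated wells for no effect and antibiotic for full effect; wells of about 80 µL received 100 nL stock; the first replicate is given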
Mtb hypoxia rep growth = second read-out of Mtb hypoxia rep, no call of its own (marks repeat the call); growth inhibition, %; measured here: M. tuberculosis growth (absorbance);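 0% = vehicle and 100% = reference antibiotic; read after six days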
* hit, by the source's call.

CCCNC(=O)c1ccccc1NC(=O)CN(c1ccccc1OCC)S(C)(=O)=O was read as Autofluor counter 8837, Mtb hypoxia rep 9, BJeLR lethal -12, Sa RN4220 lethal 7.1, PrP 5UTR inh -15, ugtP null kill -9 and Mtb hypoxia rep growth 8.
`CCC[C@@H]1C[C@@H](C(=O)NC(C(C)Cl)[C@H]2O[C@H](SC)[C@H](O)[C@@H](O)[C@H]2O)N(C)C1` (some centres not stated) gave Autofluor counter 6014, BJeLR lethal -2 and PrP 5UTR inh -7.
CN(CC(=O)Nc1ccc(Cl)c(C(F)(F)F)c1)C(=O)Cc1cccs1 was read as Autofluor counter 6219, Mtb hypoxia rep 5, BJeLR lethal -2, Sa RN4220 lethal 0.9, PrP 5UTR inh -26, ugtP null kill -9 and Mtb hypoxia rep growth 0.
`CCOc1ccc(NC(=O)CNC(=O)c2ccc(OC)c(OC)c2)cc1` gave Autofluor counter 3781, BJeLR lethal 2, Sa RN4220 lethal 4.8, PrP 5UTR inh -7 and ugtP null kill 0.
Screening COc1ccc(CN2CCC(n3nccc3NC(=O)C3CC3)CC2)c(Cl)c1OC returned Autofluor counter 5714, Mtb hypoxia rep 2, BJeLR lethal -2, Sa RN4220 lethal -1.4, PrP 5UTR inh -6, ugtP null kill 2 and Mtb hypoxia rep growth 9.
S=c1[nH]ccn1-c1cccc(Cl)c1 was read as Autofluor counter 1917, Mtb hypoxia rep -10, BJeLR lethal -1, Sa RN4220 lethal 1.5, PrP 5UTR inh -4, ugtP null kill -2 and Mtb hypoxia rep growth 11.
For COc1cc(-c2nc(CN3CCN(C(=O)c4ccco4)CC3)c(C)o2)ccc1F the results were Autofluor counter 6063, Mtb hypoxia rep 1, BJeLR lethal 3, Sa RN4220 lethal 1.3, PrP 5UTR inh -7, ugtP null kill 8 and Mtb hypoxia rep growth 4.
Screening O=C(N/N=C/c1cccc(Br)c1)c1ccc(Br)cc1 returned Autofluor counter 3480, BJeLR lethal -1 and PrP 5UTR inh -20.
`COc1cc(C(c2c(C)n(C)n(-c3ccccc3)c2=O)c2c(C)n(C)n(-c3ccccc3)c2=O)cc(Br)c1O` gave Autofluor counter 4394, Mtb hypoxia rep -6, BJeLR lethal 6, Sa RN4220 lethal 3.2, PrP 5UTR inh -17, ugtP null kill 2 and Mtb hypoxia rep growth 0.
Screening Cc1ccc(Cn2nnnc2CN2CCC(O)(c3cccnc3)CC2)cc1 returned Autofluor counter 3286, Mtb hypoxia rep 2, BJeLR lethal 0, Sa RN4220 lethal 6.6, PrP 5UTR inh -100, ugtP null kill 3 and Mtb hypoxia rep growth 11.
For COc1ccc(CCNC(=O)CSc2nnnn2-c2ccccc2)cc1 the results were Autofluor counter 3109, Mtb hypoxia rep 4, BJeLR lethal 1, Sa RN4220 lethal 8.3, PrP 5UTR inh 13, ugtP null kill -1 and Mtb hypoxia rep growth 5.
For Nc1cc(=O)nc(SCc2ccccc2)n1Cc1ccco1 the results were Autofluor counter 4639, BJeLR lethal -3, Sa RN4220 lethal 2.8, PrP 5UTR inh 2 and ugtP null kill -1.
`COc1cccc(Cn2c(NCc3ccco3)nc3c2c(=O)n(C)c(=O)n3C)c1` gave Mtb hypoxia rep -5, BJeLR lethal 20, Sa RN4220 lethal 1.3, ugtP null kill -4 and Mtb hypoxia rep growth 2.
COc1nc(NCCO)nc(Nc2ccc([N+](=O)[O-])cc2)n1 was read as Autofluor counter 2171, Mtb hypoxia rep 0, BJeLR lethal -3, Sa RN4220 lethal -1.1, PrP 5UTR inh -9, ugtP null kill 21 and Mtb hypoxia rep growth 1.
`Cc1cccc(C)c1NS(=O)(=O)c1ccc(F)cc1` gave Autofluor counter 2414, BJeLR lethal -3, Sa RN4220 lethal 5.1, PrP 5UTR inh -15 and ugtP null kill 7.
`O=C(/C=C/c1ccccc1)NC(=S)Nc1ccc(N2CCOCC2)c(Cl)c1` gave Autofluor counter 2414, Mtb hypoxia rep 1, BJeLR lethal 4, Sa RN4220 lethal 5.9, PrP 5UTR inh -26, ugtP null kill 16 and Mtb hypoxia rep growth 4.
Screening COC1OC(COCc2ccccc2)C(N)C(OCc2ccccc2)C1OCc1ccccc1 (configuration not stated) returned Autofluor counter 4153, Mtb hypoxia rep 9, Sa RN4220 lethal 1.3, PrP 5UTR inh -7, ugtP null kill -3 and Mtb hypoxia rep growth 11.
For CCN(CC)CCNC(=O)c1ccc(NC(=O)Cc2ccccc2F)cc1 the results were Autofluor counter 4384, Mtb hypoxia rep 11, BJeLR lethal -10, Sa RN4220 lethal 0.7, PrP 5UTR inh -43, ugtP null kill 2 and Mtb hypoxia rep growth 1.
`Cc1ccc(NS(=O)(=O)c2csc(C(N)=O)c2)cc1C` gave Autofluor counter 3181, Mtb hypoxia rep 12, BJeLR lethal 5, Sa RN4220 lethal 1.4, ugtP null kill 1 and Mtb hypoxia rep growth 3.
CCOC(=O)N1CCC(NC(=O)c2cn(-c3ccc(OC)cc3)c(=O)c3ccccc23)CC1 was read as Autofluor counter 6436, Mtb hypoxia rep 6, BJeLR lethal -13, Sa RN4220 lethal 1.0, PrP 5UTR inh 1, ugtP null kill 1 and Mtb hypoxia rep growth 19.
For CCOC(=O)C1(C)/C(=N/Nc2ccc(Cl)cc2)C(=O)C(=O)N1c1ccccc1 (configuration not stated) the results were Autofluor counter 4181, Mtb hypoxia rep 2, BJeLR lethal 3, Sa RN4220 lethal 3.7, PrP 5UTR inh 2, ugtP null kill -22 and Mtb hypoxia rep growth 19.
Screening COc1ccccc1C1CC(c2cccs2)=Nc2ccccc2S1 (configuration not stated) returned Autofluor counter 4398, BJeLR lethal 6, Sa RN4220 lethal -9.9, PrP 5UTR inh -29 and ugtP null kill -10.
Screening COc1ccccc1-c1nn(Cc2ccccc2)cc1C(=O)N1CCN(c2ncccn2)CC1 returned Autofluor counter 3872, Mtb hypoxia rep -3, Sa RN4220 lethal 5.7, PrP 5UTR inh -21, ugtP null kill 4 and Mtb hypoxia rep growth 2.
Screening Cc1cc2c(cc1S(=O)(=O)Nc1cccc(F)c1)n(C)c(=O)c(=O)n2C returned Autofluor counter 6081, BJeLR lethal -9, Sa RN4220 lethal 2.6, PrP 5UTR inh -67 and ugtP null kill 7.
For c1ccc2nc3ccccc3nc2c1 the results were Autofluor counter 5611, BJeLR lethal -11, Sa RN4220 lethal 4.1, PrP 5UTR inh -34 and ugtP null kill 4.
Screening CCOC(=O)c1[nH]c(C)c(C(=O)Nc2ccc(Cl)cc2)c1C returned Autofluor counter 5548, BJeLR lethal 8, Sa RN4220 lethal 1.1, PrP 5UTR inh -17 and ugtP null kill 5.
Cc1ccc(O)c(C(CC(=O)NCc2ccco2)c2ccccc2)c1 (configuration not stated) was read as Autofluor counter 4594, Mtb hypoxia rep -7, BJeLR lethal -3, Sa RN4220 lethal 12, PrP 5UTR inh -14, ugtP null kill -1 and Mtb hypoxia rep growth 4.
`Cc1cccc(C)c1NC(=O)CN(C)C(=O)c1cc(S(=O)(=O)N2CCOCC2)ccc1N1CCCC1` gave Autofluor counter 5926, Mtb hypoxia rep 4, BJeLR lethal -2, Sa RN4220 lethal 2.4, PrP 5UTR inh -10, ugtP null kill 2 and Mtb hypoxia rep growth 8.
Screening COc1ccccc1NC(=O)COC(=O)C12CC3CC(CC(Br)(C3)C1)C2 returned Autofluor counter 3697, Mtb hypoxia rep 11, Sa RN4220 lethal 7.9, PrP 5UTR inh -11, ugtP null kill -2 and Mtb hypoxia rep growth 13.
Screening O=C(CCCOc1ccc(Cl)cc1Cl)N/N=C/c1ccco1 returned Autofluor counter 2434, BJeLR lethal 1 and PrP 5UTR inh -21.
Screening Cc1ccc(C(O)(C(=O)NN(C(=O)c2ccccc2)c2ccccc2)c2ccc(C)cc2)cc1 returned Autofluor counter 2258, Mtb hypoxia rep 9, BJeLR lethal 10, Sa RN4220 lethal -8.4, PrP 5UTR inh -14, ugtP null kill 15 and Mtb hypoxia rep growth 5.
`COc1ccc(-c2ccc(=O)n(CC(=O)NCC3COCCO3)n2)cc1` (configuration not stated) gave Autofluor counter 5346, Mtb hypoxia rep 14, BJeLR lethal 0, Sa RN4220 lethal 2.4, PrP 5UTR inh -4, ugtP null kill 6 and Mtb hypoxia rep growth 3.
CCc1ccccc1-n1c(SCC(=O)NC)nnc1-c1ccco1 was read as Autofluor counter 4214, Mtb hypoxia rep 9, BJeLR lethal 3, Sa RN4220 lethal 4.9, PrP 5UTR inh -38, ugtP null kill 2 and Mtb hypoxia rep growth -1.
Cn1nnc(NC(=S)NC(=O)c2cccc3ccccc23)n1 was read as Autofluor counter 5852, BJeLR lethal 0 and PrP 5UTR inh -17.
Screening NC(=O)C1CC(=O)N(Cc2ccc3c(c2)OCO3)C(=Nc2ccccc2)S1 (configuration not stated) returned Autofluor counter 11146, Mtb hypoxia rep 8, BJeLR lethal -13, Sa RN4220 lethal 3.0, PrP 5UTR inh -7, ugtP null kill -7 and Mtb hypoxia rep growth 7.
Screening Cc1cccc(N2CC3=C(C2=O)C(c2ccccc2)NC(=O)N3C)c1 (configuration not stated) returned Autofluor counter 4089, Mtb hypoxia rep -8, BJeLR lethal -2, Sa RN4220 lethal -1.2, PrP 5UTR inh -10, ugtP null kill -2 and Mtb hypoxia rep growth -8.

Gathered by group: the compounds so far containing two or more sulfur atoms (two)
`Cc1ccc(NS(=O)(=O)c2csc(C(N)=O)c2)cc1C` gave Autofluor counter 3181, Mtb hypoxia rep 12, BJeLR lethal 5, Sa RN4220 lethal 1.4, ugtP null kill 1 and Mtb hypoxia rep growth 3.
Screening COc1ccccc1C1CC(c2cccs2)=Nc2ccccc2S1 (configuration not stated) returned Autofluor counter 4398, BJeLR lethal 6, Sa RN4220 lethal -9.9, PrP 5UTR inh -29 and ugtP null kill -10.

The list goes on.
Cc1ccc([N+](=O)[O-])cc1NC(=O)CN1CCC(C)CC1 was read as Autofluor counter 3861, Mtb hypoxia rep 5, BJeLR lethal -14, Sa RN4220 lethal 2.1, PrP 5UTR inh -7, ugtP null kill 15 and Mtb hypoxia rep growth -5.
CC1(C)CC(=O)C2=C(C1)OC(N)=C(C#N)C21C(=O)N(CN2CCOCC2)c2ccccc21 (configuration not stated) was read as Autofluor counter 4577, Mtb hypoxia rep 3, BJeLR lethal -6, Sa RN4220 lethal 9.4, PrP 5UTR inh -13, ugtP null kill -3 and Mtb hypoxia rep growth 6.
Screening CCOc1ccc(NC(=O)CN2CCN(C(=O)c3ccco3)CC2)cc1S(=O)(=O)N1CCCC1 returned Autofluor counter 5640, Mtb hypoxia rep 6, Sa RN4220 lethal 6.3, PrP 5UTR inh 8, ugtP null kill 1 and Mtb hypoxia rep growth 8.
Screening CC(=O)Nc1cccc(NC(=O)COc2ccccc2C)c1 returned Autofluor counter 3413, Mtb hypoxia rep -7, BJeLR lethal -5, Sa RN4220 lethal 0.2, PrP 5UTR inh -8, ugtP null kill -1 and Mtb hypoxia rep growth 6.
For CCN(Cc1ccccc1)C(c1ccncc1)c1nnnn1C(C)(C)C (configuration not stated) the results were Autofluor counter 11521, Mtb hypoxia rep 11, BJeLR lethal 15, Sa RN4220 lethal 8.8, PrP 5UTR inh -23, ugtP null kill 11 and Mtb hypoxia rep growth 10.
Screening N/C(=N\OC(=O)CCCN1C(=O)c2ccccc2C1=O)c1ccc(Cl)cc1 returned Autofluor counter 2515, Mtb hypoxia rep -8, BJeLR lethal 4, Sa RN4220 lethal 11, PrP 5UTR inh -25, ugtP null kill -3 and Mtb hypoxia rep growth 7.
Screening O=C(OCC1OC(n2cc(Br)c(=O)[nH]c2=O)C(Br)C1O)c1ccccc1 (configuration not stated) returned Autofluor counter 3669, Mtb hypoxia rep 9, BJeLR lethal 1, Sa RN4220 lethal 0.3, PrP 5UTR inh -12, ugtP null kill -2 and Mtb hypoxia rep growth -1.

By substructure: the entries above containing an NH in an aromatic ring (three)
S=c1[nH]ccn1-c1cccc(Cl)c1 was read as Autofluor counter 1917, Mtb hypoxia rep -10, BJeLR lethal -1, Sa RN4220 lethal 1.5, PrP 5UTR inh -4, ugtP null kill -2 and Mtb hypoxia rep growth 11.
Screening CCOC(=O)c1[nH]c(C)c(C(=O)Nc2ccc(Cl)cc2)c1C returned Autofluor counter 5548, BJeLR lethal 8, Sa RN4220 lethal 1.1, PrP 5UTR inh -17 and ugtP null kill 5.
Screening O=C(OCC1OC(n2cc(Br)c(=O)[nH]c2=O)C(Br)C1O)c1ccccc1 (configuration not stated) returned Autofluor counter 3669, Mtb hypoxia rep 9, BJeLR lethal 1, Sa RN4220 lethal 0.3, PrP 5UTR inh -12, ugtP null kill -2 and Mtb hypoxia rep growth -1.

Screening results (PubChem BioAssay)
